# FGF22 binding – FGF22 (human) thermal shift binding | Q9HCT0 | recombinant FGF22 thermal shift, SYPRO orange fluorescence; percent of sucrose octasulfate shift, DMSO zero | calls only at 9.99 µM | 340,000 tested, 1.5% active;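 active = melting point raised past a set limit in the mean and every replicate; three in four hits are not shown here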
# Target sequence (Q9HCT0 whole entry, looked up): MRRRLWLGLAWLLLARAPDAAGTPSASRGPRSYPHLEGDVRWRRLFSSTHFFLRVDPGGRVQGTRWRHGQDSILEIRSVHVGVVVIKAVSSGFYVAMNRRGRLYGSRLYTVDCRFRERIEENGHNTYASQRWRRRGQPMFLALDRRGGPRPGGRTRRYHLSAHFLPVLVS
# ALR inh – inhibitors of human sulfhydryl oxidase ALR. P55789. purified ALR, DTT oxidation, H2O2 HRP-luminol luminescence. inhibition, % (test concentration not listed). 290,000 tested, 3.8% active. AID 485317;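 active = mean and each replicate at 75% or more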;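 also: stock transfer was 7.5 nL into about 7.5 µL; 0% = neutral wells and 100% = wells with inactivated enzyme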
# Target sequence (P55789 whole entry, looked up): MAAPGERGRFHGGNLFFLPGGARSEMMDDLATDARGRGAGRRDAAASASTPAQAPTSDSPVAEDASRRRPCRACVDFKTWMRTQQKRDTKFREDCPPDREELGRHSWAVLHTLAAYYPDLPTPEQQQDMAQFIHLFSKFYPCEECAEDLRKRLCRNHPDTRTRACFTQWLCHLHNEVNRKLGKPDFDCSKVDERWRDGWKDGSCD
# HNF4A DNA FP – change in binding of human HNF4 alpha to DNA. P41235. HNF4a-FITC DNA binding, fluorescence polarization, 1 h. activity change, % at 10 µM. 360,000 tested, 0.3% active; in the data active = activity change above about 30%, passing the limit was not always enough;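 also: controls were the assay level and a saturating level of protein; the project sought stronger binding though the title names inhibitors; some compounds called inactive have numbers as strong as hits; positive values seem to mean higher polarization but the record does not say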
# Target sequence (P41235 whole entry, looked up): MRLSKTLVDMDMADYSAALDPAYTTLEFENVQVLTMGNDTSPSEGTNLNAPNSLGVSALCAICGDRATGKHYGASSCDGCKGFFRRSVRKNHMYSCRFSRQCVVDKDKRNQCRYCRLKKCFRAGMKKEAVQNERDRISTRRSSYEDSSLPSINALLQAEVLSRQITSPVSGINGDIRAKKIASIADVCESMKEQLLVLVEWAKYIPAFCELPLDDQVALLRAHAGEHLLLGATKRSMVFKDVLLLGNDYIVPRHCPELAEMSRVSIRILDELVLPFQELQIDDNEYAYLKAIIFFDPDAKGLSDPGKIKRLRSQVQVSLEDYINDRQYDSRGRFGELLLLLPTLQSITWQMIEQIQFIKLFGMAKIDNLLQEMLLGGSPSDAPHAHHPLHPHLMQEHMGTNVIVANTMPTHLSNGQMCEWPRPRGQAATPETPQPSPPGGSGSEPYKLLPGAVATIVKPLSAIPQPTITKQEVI
# UCH37 inh – blocks the human deubiquitinase UCH37. Q9Y5K5. purified proteasome/UCH37, Ub-AMC cleavage fluorescence. inhibition, % (concentration not given with the values). 330,000 tested, 0.33% active. AID 588478;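 active = mean of two replicates above 20%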;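 also: 0% = compound-free wells with enzyme and 100% = wells lacking proteasome; stock transfer was 100 nL into about 20 µL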
#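 Material: human UCH37 enzyme supplied as purified proteasome complex. Measure: % inhibition of Ub-AMC cleavage fluorescence. Medium: pH 7.4 Tris-HCl (50 mM) with ovalbumin, ATP-MgCl2, DTT. Times: 30 min preincubation with enzyme, 25 min cleavage at room temperature. Detection: AMC fluorescence intensity at 355/460 nm.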
# Ecoli growth – blocks Escherichia coli growth. 330,000 tested, 0.21% active. OD600 absorbance (no concentration beside the values). AID 1053175. OD600, 23 h; active compounds read low;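 active = OD600 absorbance below the run mean of sample wells minus 3.6 SD, in any replicate, cut at about 0.56 in these data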;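 also: stock transfer was 300 nL into about 60 µL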
# B2AR ag – human beta-2 adrenergic receptor agonism by FAP; Am2.2-beta2AR cells, FAP receptor internalization, flow cytometry; reference of the scale not given here; 340,000 tested, 0.43% active; P07550; response, % (concentration not given with the values);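 active = response above a set limit, near 3 SD of response in nonfluorescent compounds, cut at about 42% in these data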;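 also: stock transfer was 100 nL into about 11 µL; a reference agonist was the positive control; negative values mostly stem from fluorescent compounds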
# rRNA inh HTS – selective bacterial rRNA inhibition in E. coli; 350,000 tested, 1.6% active; AID 720706; E. coli WT GFP vs humanized-ribosome RFP mutants, fluorescence, 24 h; active compounds read low; DMSO median 0, no signal -100; GFP signal change (wild-type ribosome), % (no concentration beside the values);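 active = significant combined selectivity score with lowered wild-type GFP, culture density cut under 30%, mutant RFP and density less affected; inactive = any of these conditions unmet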; also: one replicate is shown; some compounds called inactive have numbers as strong as hits
# rRNA inh HTS OD600 – recorded beside rRNA inh HTS, whose call it bears; OD600 change, %; measured here: OD600 growth;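 optical density of the mix in the first replicate; 0 = DMSO median and -100 = no signal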
# rRNA inh HTS RFP – further read-out of rRNA inh HTS, marked with its call; RFP signal change, %; measured here: RFP humanized mutant strains;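 first replicate; 0 = DMSO median and -100 = no signal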
# * hit, by the source's call; i = inactive; / = not tested or not shown. Not all compounds are listed (hit frequency here may not be typical).
SMILES,FGF22 binding,ALR inh,HNF4A DNA FP,UCH37 inh,Ecoli growth,B2AR ag,rRNA inh HTS,rRNA inh HTS OD600,rRNA inh HTS RFP
COC(=O)c1ccc2nc(C(F)(F)F)[nH]c2c1,/,-25,0.3,0.6,0.67,4,/,/,/
CC1=C(C)CC(C(=O)N2CCN(Cc3ccc4c(c3)OCO4)CC2)C(C(=O)O)C1 (stereo unspecified),/,0,-1.9,-1.9,0.68,9,16,7,-2.4
COc1ccc(OC)c(/C=N/NC(=O)CNC(=O)c2ccc(S(=O)(=O)N3CCOCC3)cc2)c1,i,-3,0.4,/,/,4,-1,14,-4.6
CCOC(=O)N1CCN(C(=O)Nc2ccc3nc(C)c(C)nc3c2)CC1,/,-32,-3.5,-62,0.69,12,/,/,/
CS(=O)(=O)N(CC(=O)Nc1ccc(S(=O)(=O)N2CCOCC2)cc1)c1cccc(F)c1,i,-2,0.3,3.1,0.67,14,-1,-2,0.2
N#CC(c1ccccc1)c1ccc(C(=O)c2ccc(F)cc2)cc1 (stereo unspecified),/,2,1.5,5.9,0.67,-10,/,/,/
CCN1CCN(c2ncnc3scc(-c4ccc(C)c(C)c4)c23)CC1,i,-2,10,4.8,0.64,8,-9,-17,2.5
COc1ccc(CC(=O)N(C)c2ccccc2)cc1S(=O)(=O)N1CCOCC1,i,/,0.2,/,/,/,2,0,-2.7
CC(=O)Nc1cc(-c2ccccc2N(C)C)cn2c(-c3cccc(C(F)(F)F)c3)cnc12,i,/,-133,/,/,/,5,-4,2.7
O=C(CCC(=O)N1CCN(S(=O)(=O)c2ccc([N+](=O)[O-])cc2)CC1)N1CCOCC1,i,-37,1.5,/,/,-1,-1,8,-3.2
O=[N+]([O-])c1ccc(O)c(C=NNc2ccc(S(=O)(=O)O)cc2)c1,i,/,-13,25*,0.66,3,-4,9,-4.4
CCC(C)Sc1ccc([C@@H]2[C@@H]3C(=O)N(C)C(=O)[C@@H]3[C@]3(C(=O)OC)CCCCN23)cc1 (stereo partly specified),i,-7,3.5,0.5,/,6,1,2,2.2
COc1ccc(C(=O)N2CCCCC2c2cc(C(=O)Nc3cccc(C#N)c3)no2)cc1 (stereo unspecified),i,/,0.0,/,/,/,3,-3,3.0
N#CC1(NC(=O)CSc2nc3ccccc3o2)CCCCC1,i,54,-3.9,2.8,0.65,0,1,0,-1.5
Cc1cc2n(n1)SC(Nc1ccc(F)cc1)N2 (stereo unspecified),/,6,1.2,-1.4,0.69,-4,/,/,/
CCCOc1ccc(Cn2c(=O)oc3ccc(C)cc32)cc1,i,-4,0.6,0.2,0.67,-5,-7,-22,-4.1
Clc1ccc(CN2C3=NCCN3c3ccccc32)cc1Cl,/,98*,1.6,7.0,0.61,-7,/,/,/
COc1ccccc1NC(=O)c1cc(=O)[nH]c2ccccc12,i,99*,7.5,3.1,0.61,0,-5,1,-2.0
O=C(N/N=C/C=C/c1cccc([N+](=O)[O-])c1)C(O)c1ccccc1 (stereo unspecified),i,-4,-0.3,/,/,0,-2,9,-0.6
CCN(CC)CCCN1C(=O)C(O)=C(C(=O)c2ccco2)C1c1ccc(C)o1 (stereo unspecified),/,-20,5.0,20,0.73,3,4,4,4.9

# 2 entries from above, set out differently.
SMILES | FGF22 binding | ALR inh | HNF4A DNA FP | UCH37 inh | Ecoli growth | B2AR ag | rRNA inh HTS | rRNA inh HTS OD600 | rRNA inh HTS RFP
CC(=O)Nc1cc(-c2ccccc2N(C)C)cn2c(-c3cccc(C(F)(F)F)c3)cnc12 | i | / | -133 | / | / | / | 5 | -4 | 2.7
COc1ccc(C(=O)N2CCCCC2c2cc(C(=O)Nc3cccc(C#N)c3)no2)cc1 (stereo unspecified) | i | / | 0.0 | / | / | / | 3 | -3 | 3.0

# (further entries)
SMILES,FGF22 binding,ALR inh,HNF4A DNA FP,UCH37 inh,Ecoli growth,B2AR ag,rRNA inh HTS,rRNA inh HTS OD600,rRNA inh HTS RFP
COc1ccc2ccccc2c1CN1CCN(Cc2ccccc2)CC1,/,-55,-2.4,2.2,0.65,2,/,/,/
COc1ccc(Nc2ccc(N3C(=O)CC(C)C3=O)cc2[N+](=O)[O-])cn1 (stereo unspecified),i,-9,-4.1,6.3,0.65,-5,5,-7,-2.7
Cc1cc(C)c(-c2cc(NC(=O)CSc3n[nH]c(N)n3)n(-c3ccccc3)n2)cc1C,/,6,-4.3,-1.0,0.74,-3,/,/,/
Cc1ccc(NC(=O)COC(=O)/C=C/c2cccs2)c(C)c1,/,0,1.9,-1.1,0.7,12,/,/,/
CCOC(=O)C1(Cc2cccc(Cl)c2)CCCN(C2CCN(C(C)=O)CC2)C1 (stereo unspecified),i,-28,9.8,2.6,0.69,1,/,/,/
COc1ccc(NC(=O)COc2ccccc2C#N)c(S(=O)(=O)N2CCCCC2)c1,/,5,-0.2,2.5,0.73,-1,/,/,/
Cc1nc(CCNC(=O)CC2C(=O)NCCN2Cc2ccc(F)cc2)sc1C (stereo unspecified),i,-14,-1.6,-3.5,0.67,-5,21,15,4.9
O=[N+]([O-])C(=C1Nc2ccccc2N1)/C(Cl)=C(/Cl)Br,/,89*,1.6,7.9,0.63,0,/,/,/
Cc1onc(-c2ccccc2Cl)c1C(=O)Nc1cnn(Cc2ccccc2)c1,i,1,-6.3,6.2,0.76,2,-7,-20,-2.9
Cc1cccc(N2CCN(C(=O)CNC(=O)C3CCCCC3)CC2)c1C,i,/,-1.3,0.4,0.64,-1,0,4,-1.9
Cc1ccc(N2CCN(c3cc(C)nc4nc(C)nn34)CC2)c(C)c1,i,-36,0.3,6.1,0.73,3,1,-14,-5.3
CN1CCN(C(CNC(=O)C(=O)NC2CCCC2)c2ccc(F)cc2)CC1 (stereo unspecified),i,/,1.4,3.8,0.69,-2,21,8,0.1
CC1CCC(C(C)C)C(OCC(O)CN2CCN(Cc3ccccc3)CC2)C1 (stereo unspecified),/,-7,0.0,2.9,0.68,1,/,/,/
O=C(Nc1ccccc1C(=O)O)c1cc(S(=O)(=O)N2CCCCC2)c(Cl)cc1Cl,i,4,-0.1,2.6,0.7,6,-8,-31,0.4
CCOC(=O)c1c(C)[nH]c(C(=O)NCCc2ccc(OC)c(OC)c2)c1C,i,-1,0.1,2.5,0.67,-2,-2,-6,7.2
O=C(CCNS(=O)(=O)c1ccc2ccccc2c1)NCCOc1ccccc1,i,/,0.7,0.8,0.68,-10,-18,-24,5.1
CCCCn1c(N)c(N(CC(C)C)C(=O)C2=NN(c3ccccc3)C(=O)CC2)c(=O)[nH]c1=O,i,-3,0.8,-2.8,0.66,1,8,17,-2.3
O=C(Nc1ccccc1N1CCOCC1)c1cc(Cl)c2c(c1)OCO2,i,/,0.7,1.4,0.65,0,10,14,3.0
Cc1cccc(NC(=O)Nc2cc(C)cc(C)n2)c1,i,-2,2.7,5.2,0.71,-3,11,12,-2.6
Cc1ccc(N2C(=O)NC(C(F)(F)F)(C(F)(F)F)C3=C2CC(C)(C)CC3=O)cc1,i,1,1.1,-0.7,/,-1,6,14,-2.9
CCC(C(=O)NCCc1ccc(C)cc1)n1nc(C)c2c(C)n(-c3ccccc3)nc2c1=O (stereo unspecified),i,-5,-4.4,4.1,0.69,-8,-21*,-10*,-0.7*
CCC1=NN2C(=N)/C(=C\c3ccc(OCCOc4ccc(NC(C)=O)cc4)c(OC)c3)C(=O)N=C2S1,i,-17,-1.8,2.5,0.71,7,11,7,1.4
COc1ccc(NC(=O)C2CCC(CNC(=O)[C@@H]3Cc4ccccc4CN3)CC2)cc1 (stereo partly specified),i,-4,0.9,2.6,0.66,3,-1,6,-2.5
Cc1nc2sccn2c(=O)c1S(=O)(=O)NC(C)c1ccccc1 (stereo unspecified),i,-1,4.3,-9.6,0.74,0,8,-2,-5.9
Cc1ccc(S(=O)(=O)N2CCOCC2)cc1C(=O)NC1CCCCCC1,i,-15,-4.5,/,/,-6,10,10,-3.3
COc1ccc(OC)c(C2=NOC(C(=O)Nc3cc(C)on3)C2)c1 (stereo unspecified),i,-14,-0.5,1.4,0.7,0,-1,10,6.7
O=C(c1ccc(CS(=O)(=O)c2c(Cl)cccc2Cl)o1)N1CCCC1,i,3,1.4,3.4,0.75,1,-8,-11,-5.0
COc1ccccc1C1C2=C(CC(C)(C)CC2=O)Nc2nnnn21 (stereo unspecified),/,7,-1.7,-3.9,0.72,0,/,/,/
CCOC(=O)C1(c2ccccc2)NC(c2ccccc2C)C2C(=O)N(c3ccc4c(c3)OCO4)C(=O)C21 (stereo unspecified),/,-7,-1.3,-1.6,0.66,2,/,/,/
COc1cc(/C=N\Nc2nncn2N)ccc1OC(C)=O,i,26,-1.8,/,/,4,-10,0,-3.9
COc1ccc(CC(N)c2csc(NC(=O)c3cccc(OC(F)(F)F)c3)n2)cc1 (stereo unspecified),i,/,1.1,/,/,/,-61,-81,-18
COc1ccccc1C1=CN(Cc2ccccc2)CCC1=O,i,0,2.0,7.2,0.67,3,-10,-8,-5.8
COc1ccc2c(CC(=O)OCC(=O)NC(N)=O)coc2c1,i,-5,-2.0,4.3,0.71,-3,7,5,-0.7
CCOC(=O)C1CCCN(C(=O)c2cc3nc(-c4ccc5c(c4)OCO5)cc(C(F)(F)F)n3n2)C1 (stereo unspecified),/,-26,0.0,-111,0.75,2,/,/,/
COc1ccc(CC(=O)Nc2nc(-c3ccncc3)cs2)cc1,i,6,-1.5,-3.1,0.67,8,0,4,-2.3
CCCc1oc2c(c(=O)c1CC)C(=O)CC(C)(C)C2,/,-5,-3.4,4.9,0.73,-4,/,/,/
COc1ccc(CCN(Cc2cccs2)S(=O)(=O)c2ccc(S(=O)(=O)N3CCC(C)CC3)cc2)cc1OC,/,-3,1.9,1.1,0.7,2,/,/,/
CC(=O)c1cccc(N(CC(=O)NCC2CCCO2)C(=O)CCC(=O)Nc2cc(C)on2)c1 (stereo unspecified),/,-2,1.6,-2.7,0.69,0,/,/,/
CCCn1c(=O)[nH]c2ccccc21,/,-20,2.5,-0.6,0.74,8,/,/,/
CC1(C2CC2)NC(=O)N(CC(=O)N2CCN(c3ccccc3F)CC2)C1=O (stereo unspecified),i,/,-1.0,/,/,/,3,6,0.3

# Entries above shown as hits in ALR inh.
SMILES,FGF22 binding,ALR inh,HNF4A DNA FP,UCH37 inh,Ecoli growth,B2AR ag,rRNA inh HTS,rRNA inh HTS OD600,rRNA inh HTS RFP
Clc1ccc(CN2C3=NCCN3c3ccccc32)cc1Cl,/,98*,1.6,7.0,0.61,-7,/,/,/
COc1ccccc1NC(=O)c1cc(=O)[nH]c2ccccc12,i,99*,7.5,3.1,0.61,0,-5,1,-2.0
O=[N+]([O-])C(=C1Nc2ccccc2N1)/C(Cl)=C(/Cl)Br,/,89*,1.6,7.9,0.63,0,/,/,/

# Further structures follow.
SMILES,FGF22 binding,ALR inh,HNF4A DNA FP,UCH37 inh,Ecoli growth,B2AR ag,rRNA inh HTS,rRNA inh HTS OD600,rRNA inh HTS RFP
O=C(O)c1cc(Br)ccn1,i,-2,0.2,2.4,0.64,3,4,7,-2.9
O=C(O)c1cc(-c2ccc(Cl)cc2)n[nH]1,/,16,-2.2,-1.7,0.75,3,/,/,/
O=S(=O)(c1ccc(Cl)s1)N1CCN(CCc2ccccc2)CC1,i,/,1.9,0.7,0.72,12,5,7,0.0
COCCNC(=O)c1snc2ccc(Cl)cc12,i,-10,-3.4,-25,0.67,1,10,-2,-3.7
CN(C)S(=O)(=O)c1ccc(C(=O)Nc2cc(S(=O)(=O)Nc3ccccc3Cl)ccc2N2CCCCC2)cc1,/,-1,-4.1,-3.2,0.69,-1,/,/,/
Cc1ccc(C(C)C)cc1OCCCCN1CCCC1,/,/,0.3,4.5,0.64,-2,/,/,/
CC(Oc1ccc2c3c(c(=O)oc2c1)CCCC3)C(=O)NCC(O)c1ccccc1 (stereo unspecified),i,-3,1.4,-40,0.69,-9,-6,-10,-0.5
